HIV Env fusion – blocks HIV Env-driven cell-cell fusion | HeLa-JRFL Env/CEM21 cell fusion, luciferase | inhibition, % at 12.3 µM | actives 1.1% (n = 360,000) | AID 651610;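 active = mean replicate inhibition score of at least 50 and every replicate individually at or above 50; inconclusive = only one of the two criteria met; inactive = mean below 50 and not all replicates reaching 50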;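 note: 0% = plate neutral controls and 100% = maraviroc near 300 nM; one replicate is shown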
Rce1 inh – yeast Ras-converting enzyme inhibition; Q03530; yeast membranes, quenched prenylated peptide cleavage fluorescence; calls only; actives 0.27% (n = 290,000);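 active = fall in fluorescence gain of 50% or more versus controls, with final raw signal at or below 3038400; inconclusive = same 50% fall but final raw signal above 3038400; inactive = fall in fluorescence gain under 50%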;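 note: plate controls were neutral control wells for no effect and wells lacking membranes for full effect; tested at 10 µM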
Target sequence (Q03530 whole entry, looked up): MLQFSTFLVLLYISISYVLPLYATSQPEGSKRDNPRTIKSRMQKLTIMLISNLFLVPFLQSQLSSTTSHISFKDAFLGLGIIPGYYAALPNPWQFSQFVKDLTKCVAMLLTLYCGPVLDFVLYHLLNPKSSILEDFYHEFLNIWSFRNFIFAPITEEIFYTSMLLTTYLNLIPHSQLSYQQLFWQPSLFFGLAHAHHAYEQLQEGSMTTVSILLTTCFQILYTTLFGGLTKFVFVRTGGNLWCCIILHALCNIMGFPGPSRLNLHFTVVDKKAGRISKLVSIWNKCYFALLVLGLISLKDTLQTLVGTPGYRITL
CSC inhib – blocks cancer stem cells | inhibition, % at 7.5 µM | actives 1.1% (n = 300,000) | cancer stem cell-like cells viability, luminescence;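 active = mean at 75% or more and at least half the replicates too; inconclusive = mean and replicates disagree; tested in HMLE shEcad cells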;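 note: 0% = median of negative and 100% = median of positive control wells; the first replicate is given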
eIF4H inh – inhibitors of RNA binding by human eIF4H; eIF4H fluorescence polarization binding assay; Q15056; actives 0.94% (n = 290,000); inhibition, % at 35 µM; AID 2012;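 active = 50% or more with normal probe brightness, or confirmed in later tests; inconclusive = above 50% with abnormal brightness, or retests that disagree; inactive = below 50% or failed in later tests; about a fifth of its hits are not listed in these tables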;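 note: calls also rest on retests at 20 µM and on dose response follow-up; 0% = protein and probe with vehicle and 100% = probe without protein; strong numbers were not always called active; many hits fall short of the cut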
Yeast UUG start – yeast start codon fidelity modulation; S. cerevisiae UUG-firefly luciferase reporter, luminescence/redox ratio; activity score, % at 18.7 µM; actives 0.13% (n = 350,000); AID 602363;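 active = replicate mean at a twofold rise or more, about +100% in these data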;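 note: firefly luciferase made from a UUG start codon reports start codon fidelity; reporter light over untreated wells divided by growth signal over untreated wells; some hits fall short of that in this replicate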
PABP FP inh – blocks human PABP binding to poly(A) RNA; fluorescence polarization; inhibition, % at 35 µM; actives 1% (n = 290,000); P11940;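 active = 50% or more with normal probe brightness, or confirmed in later tests; inconclusive = above 50% with abnormal brightness, or retests that disagree; inactive = below 50% or failed in later tests; about a fifth of its hits are not listed in these tables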;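 note: calls also rest on retests at 20 µM and on dose response follow-up; controls were probe without protein and protein plus probe with vehicle; some compounds called inactive have numbers as strong as hits; many hits fall short of the cut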
MT1-MMP act inh – MT1-MMP (human) activation inhibition; P50281; HT1080 RFP-PRO-GFP cells, GFP/RFP ratio fluorescence, overnight; percent of plate control window, DMSO zero; GFP/RFP ratio change, % at 20 µM; actives 0.061% (n = 360,000); AID 651647;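 active = GFP/RFP ratio change of at least 30% with cell ATP level not reduced by more than half and red fluorescence within 50% of control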; note: strong numbers were not always called active
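Assay system: HT1080 RFP-PRO-GFP cells. Benchmarks: DMSO vehicle wells and RFP-L50D-GFP reporter cell wells. Times: overnight cell settling, then overnight compound exposure, 37 °C, 5% CO2. Compound: 20 µM single dose, 1% DMSO. Read-out basis: GFP/RFP fluorescence ratio.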
MT1-MMP act inh RFP – further read-out of MT1-MMP act inh, marked with its call; RFP signal change, %; measured here: RFP expression control read;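 0 = vehicle wells; hits needed this value within 50% of zero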
* hit, by the source's call. Only part of the results is shown, so the mix of outcomes need not match the whole.

CC(C)C(NC(=O)COc1ccc2ccccc2c1)C(=O)N/N=C/C=C/c1ccccc1 (stereo not drawn) was read as HIV Env fusion 10, Rce1 inh inactive, CSC inhib 1, eIF4H inh -2, PABP FP inh 49, MT1-MMP act inh 0 and MT1-MMP act inh RFP 0.
`COc1cccc(CN(C(=O)c2ccco2)C2CCS(=O)(=O)C2)c1` (stereo not drawn) gave HIV Env fusion 0, Rce1 inh inactive, CSC inhib -7, eIF4H inh -2, Yeast UUG start -12 and PABP FP inh 5.
CON(C)c1nc(OCCNC(=O)OCc2ccc(Cl)cc2Cl)nc(N(C)C)n1 was read as HIV Env fusion 139*, Rce1 inh inactive, CSC inhib -11, eIF4H inh -7, Yeast UUG start -8, PABP FP inh -2, MT1-MMP act inh -1 and MT1-MMP act inh RFP 0.
O=C(O)C1CCCCC1C(=O)NCc1cn2ccccc2n1 (stereo not drawn) was read as HIV Env fusion 5, Rce1 inh inactive, CSC inhib 12, eIF4H inh 6, Yeast UUG start -18, PABP FP inh 0, MT1-MMP act inh -2 and MT1-MMP act inh RFP -2.
`Nc1c(C(=O)Nc2ccc(S(=O)(=O)N3CCCC3)cc2)sc2nc3ccc(OC(F)(F)F)cc3cc12` gave HIV Env fusion -54, Rce1 inh inactive, CSC inhib 32, eIF4H inh 10, Yeast UUG start -9, PABP FP inh -2, MT1-MMP act inh -138 and MT1-MMP act inh RFP -8.
For CSCC[C@H](NC(=O)COc1ccc(Cl)cc1)c1nc2ccccc2[nH]1 the results were HIV Env fusion -7, Rce1 inh inactive, eIF4H inh 0, PABP FP inh -16, MT1-MMP act inh -3 and MT1-MMP act inh RFP 2.
Screening CC(=O)N1CCCc2cc(S(=O)(=O)N3CCCC3)ccc21 returned HIV Env fusion -1, Rce1 inh inactive, CSC inhib -4, eIF4H inh -9, Yeast UUG start -18, PABP FP inh -2, MT1-MMP act inh -3 and MT1-MMP act inh RFP 1.
For CCCCCCN1C[C@H](O)[C@@H](n2cc(COC(=O)c3ccccc3)nn2)C[C@@H]1c1ccc(C)cc1 the results were HIV Env fusion -17, Yeast UUG start -3, MT1-MMP act inh 1 and MT1-MMP act inh RFP -2.
`COc1ccc(CNC(=O)c2cc3c(=O)[nH]c4ccccc4c3n2C)cc1` gave HIV Env fusion -9, Rce1 inh inactive, CSC inhib -4, eIF4H inh -1, Yeast UUG start -22, PABP FP inh -4, MT1-MMP act inh 11 and MT1-MMP act inh RFP 2.
Screening C=CCn1cc(C(=O)N2CCN(C)CC2)c(=O)c2cc(S(=O)(=O)N(CC)CC)ccc21 returned HIV Env fusion 7, Rce1 inh inactive, CSC inhib -2, eIF4H inh -12, Yeast UUG start -23, PABP FP inh -6, MT1-MMP act inh 0 and MT1-MMP act inh RFP 5.
`Brc1ccc2nc(-c3cccs3)c(NCC3CCCO3)n2c1` (stereo not drawn) gave HIV Env fusion -26, Rce1 inh inactive, CSC inhib 52, eIF4H inh inconclusive, PABP FP inh inconclusive, MT1-MMP act inh -2 and MT1-MMP act inh RFP 1.
Screening O=C(N=Nc1c(O)[nH]c2ccccc12)c1ccc(CN2CCOCC2)cc1 returned HIV Env fusion 13, Rce1 inh inactive, CSC inhib 3, eIF4H inh 4, Yeast UUG start -10, PABP FP inh 15, MT1-MMP act inh 2 and MT1-MMP act inh RFP 1.
O=C(NC(=S)Nc1cccc2cccnc12)c1cccs1 was read as HIV Env fusion -18, Rce1 inh inactive, CSC inhib 0, eIF4H inh 4, PABP FP inh -17, MT1-MMP act inh 2 and MT1-MMP act inh RFP 4.
`Cc1cccc(NC(=O)CCc2nc3sc4c(c3c(=O)[nH]2)CCCC4)c1` gave HIV Env fusion -4, Rce1 inh inactive, CSC inhib 23, MT1-MMP act inh -5 and MT1-MMP act inh RFP 1.
For CC(C)(C)OC(=O)C[C@H]1C/C=C\C[C@H](CC(=O)N(CCO)Cc2ccccc2)C(=O)N2CCC[C@H]2COC1=O the results were HIV Env fusion 12, Yeast UUG start 35, MT1-MMP act inh 0 and MT1-MMP act inh RFP 1.
For Cc1nc(CN(C)C(=O)c2cc(COc3c(F)cccc3F)on2)cs1 the results were HIV Env fusion 8, Rce1 inh inactive, eIF4H inh -10, Yeast UUG start 6, PABP FP inh -1, MT1-MMP act inh 0 and MT1-MMP act inh RFP -3.
Screening Cc1ccc(-n2c(Cc3cccn3C)nnc2SCC(=O)N2CCc3ccccc32)cc1 returned HIV Env fusion 14, Rce1 inh inactive, CSC inhib -7, eIF4H inh -1, Yeast UUG start -6, PABP FP inh 3, MT1-MMP act inh -9 and MT1-MMP act inh RFP -6.
For COc1ccc([C@H]2[C@H]3C=CC[C@@H](C)[C@@H]3C(=O)N2Cc2ccccc2)cc1Cl the results were HIV Env fusion 40, Rce1 inh inactive, CSC inhib 6, eIF4H inh -8, Yeast UUG start -5, PABP FP inh -14, MT1-MMP act inh -11 and MT1-MMP act inh RFP -9.
Screening Cc1nc(C(F)(F)F)ccc1C(=O)Nc1ccc2ccccc2n1 returned HIV Env fusion -12, Rce1 inh inactive, CSC inhib -5, eIF4H inh -3, Yeast UUG start 0 and PABP FP inh -8.
For CC(C)Oc1ccc(C(=O)N2CCC(CCC(=O)NC3CC3)CC2)cc1 the results were HIV Env fusion -5, Yeast UUG start -8, MT1-MMP act inh 0 and MT1-MMP act inh RFP 4.
`CC(=O)C1=C(C)NC(SCC(N)=O)=C(C#N)C1c1cccs1` (stereo not drawn) gave HIV Env fusion -121, Rce1 inh inactive, CSC inhib -9, eIF4H inh 12, Yeast UUG start -4, PABP FP inh 12, MT1-MMP act inh -3 and MT1-MMP act inh RFP -2.
COc1ccc(C(C#N)N2N=C(C)CC2(C)C)cc1OC (stereo not drawn) was read as Rce1 inh inactive, CSC inhib 8, eIF4H inh -5, Yeast UUG start -14, PABP FP inh 11, MT1-MMP act inh 5 and MT1-MMP act inh RFP 2.
For COc1cccc(NC(=O)CCSc2ccc3ccccc3n2)c1 the results were Rce1 inh inactive, CSC inhib 3, eIF4H inh -5, PABP FP inh -2, MT1-MMP act inh 5 and MT1-MMP act inh RFP 9.
O=C1CCc2cc(S(=O)(=O)NCc3ccccc3)cc3c2N1CC3 was read as HIV Env fusion -52, Rce1 inh inactive, CSC inhib 1, Yeast UUG start 9, MT1-MMP act inh 0 and MT1-MMP act inh RFP 1.
For CC1(CCBr)C(=O)N(c2ccccc2)c2ccccc21 (stereo not drawn) the results were HIV Env fusion 7, Rce1 inh inactive, CSC inhib -7, eIF4H inh -7, Yeast UUG start -11, PABP FP inh 6, MT1-MMP act inh -3 and MT1-MMP act inh RFP -1.
For O=S(=O)(Nc1nc2c(s1)CCCC2)c1ccc(Br)cc1 the results were Rce1 inh inactive, CSC inhib -19, eIF4H inh -7, PABP FP inh -1, MT1-MMP act inh 2 and MT1-MMP act inh RFP -3.
For NC(=O)c1ccc(OCC(=O)N2CCNC2=O)cc1 the results were HIV Env fusion -4, CSC inhib -15, Yeast UUG start -13, MT1-MMP act inh 1 and MT1-MMP act inh RFP 1.
`COC(=O)C1=C(C)N(CCc2ccc(OC)c(OC)c2)C(=O)/C1=C\c1ccc(O)cc1` gave HIV Env fusion 11, Rce1 inh inactive, CSC inhib -10, eIF4H inh -6, PABP FP inh -5, MT1-MMP act inh 1 and MT1-MMP act inh RFP 1.
`Cc1csc(NC(=O)CCS(=O)(=O)c2ccc(Br)cc2)n1` gave Rce1 inh inactive, eIF4H inh 1, Yeast UUG start -11, PABP FP inh 13, MT1-MMP act inh 3 and MT1-MMP act inh RFP 2.
O=C(c1cc2ccccc2oc1=O)N(Cc1ccccc1F)C1CCS(=O)(=O)C1 (stereo not drawn) was read as HIV Env fusion -9, Rce1 inh inactive, eIF4H inh -8, Yeast UUG start -17, PABP FP inh 4, MT1-MMP act inh -1 and MT1-MMP act inh RFP 6.

Quoted at random: three compounds from above.
Screening C=CCn1cc(C(=O)N2CCN(C)CC2)c(=O)c2cc(S(=O)(=O)N(CC)CC)ccc21 returned HIV Env fusion 7, Rce1 inh inactive, CSC inhib -2, eIF4H inh -12, Yeast UUG start -23, PABP FP inh -6, MT1-MMP act inh 0 and MT1-MMP act inh RFP 5.
O=C(c1cc2ccccc2oc1=O)N(Cc1ccccc1F)C1CCS(=O)(=O)C1 (stereo not drawn) was read as HIV Env fusion -9, Rce1 inh inactive, eIF4H inh -8, Yeast UUG start -17, PABP FP inh 4, MT1-MMP act inh -1 and MT1-MMP act inh RFP 6.
`Nc1c(C(=O)Nc2ccc(S(=O)(=O)N3CCCC3)cc2)sc2nc3ccc(OC(F)(F)F)cc3cc12` gave HIV Env fusion -54, Rce1 inh inactive, CSC inhib 32, eIF4H inh 10, Yeast UUG start -9, PABP FP inh -2, MT1-MMP act inh -138 and MT1-MMP act inh RFP -8.

(next part)
`Cc1ccc2cc(C3CC(c4ccco4)=NN3S(C)(=O)=O)c(Cl)nc2c1` (stereo not drawn) gave HIV Env fusion 2, Rce1 inh inactive, CSC inhib -10, eIF4H inh 4, PABP FP inh 9, MT1-MMP act inh -1 and MT1-MMP act inh RFP -3.
For COc1ccc(N(Cc2ccccc2)S(=O)(=O)c2cc(C(=O)O)ccc2Cl)cc1 the results were HIV Env fusion 2, Rce1 inh inactive, CSC inhib 34, eIF4H inh -13, Yeast UUG start -2, PABP FP inh -4, MT1-MMP act inh -3 and MT1-MMP act inh RFP 0.
`CCOc1ccc(CN(C)C(=O)c2cccc(S(=O)(=O)Nc3ccccc3OC)c2)cc1OC` gave HIV Env fusion -38, Yeast UUG start 10, MT1-MMP act inh -1 and MT1-MMP act inh RFP -2.
`Cc1ccc(C(=O)N(CCc2ccccc2)Cc2ccccc2)cc1S(=O)(=O)N1CCCCC1` gave HIV Env fusion 15, Rce1 inh inactive, CSC inhib 19, Yeast UUG start -11, MT1-MMP act inh -10 and MT1-MMP act inh RFP -13.
Cc1ccc(C(=O)COc2nc(C)nc3ccccc23)cc1 was read as HIV Env fusion -5, Rce1 inh inactive, eIF4H inh -4, PABP FP inh -2, MT1-MMP act inh -9 and MT1-MMP act inh RFP 2.
`COc1cc(NC(=O)C2COc3ccccc3O2)c(OC)cc1Cl` (stereo not drawn) gave Rce1 inh inactive, CSC inhib -20, eIF4H inh -6, Yeast UUG start -7, PABP FP inh -11, MT1-MMP act inh 0 and MT1-MMP act inh RFP -7.
`CCC(=O)N/N=C(\C)CC(=O)Nc1ccc2c(c1)OCCO2` gave HIV Env fusion 9, Rce1 inh inactive, eIF4H inh 0, PABP FP inh 7, MT1-MMP act inh -3 and MT1-MMP act inh RFP -1.
For CC(=O)Nc1ccc(S(=O)(=O)NCC(=O)OCC(=O)NCc2ccco2)cc1 the results were HIV Env fusion 1, Rce1 inh inactive, CSC inhib 2, Yeast UUG start -6, MT1-MMP act inh 3 and MT1-MMP act inh RFP 3.
For Cc1ccc(S(=O)(=O)N(C)C)cc1NC(=O)COC(=O)C1=COCCO1 the results were CSC inhib 7, Yeast UUG start 0, MT1-MMP act inh -2 and MT1-MMP act inh RFP 2.
`NNC(=O)/C(=C\c1ccco1)NC(=O)c1ccco1` gave HIV Env fusion -17, Rce1 inh inactive, CSC inhib -6, eIF4H inh -22, Yeast UUG start 5, PABP FP inh -7, MT1-MMP act inh -1 and MT1-MMP act inh RFP 2.
`CC(C)(C)NC(=O)C12CC3CC(CC(Cl)(C3)C1)C2` gave HIV Env fusion -11, Rce1 inh inactive, CSC inhib -10, eIF4H inh 0, PABP FP inh 5, MT1-MMP act inh 0 and MT1-MMP act inh RFP 4.
`NC(N)=NCCCc1cn(CC(=O)N2CCNCC2)nn1` gave HIV Env fusion 2, Rce1 inh inactive, CSC inhib -10, eIF4H inh 3, Yeast UUG start -19, PABP FP inh 18, MT1-MMP act inh -1 and MT1-MMP act inh RFP 3.
